High-throughput results deposited in PubChem BioAssay by several laboratories.
YopH inh: YopH tyrosine phosphatase inhibitors, primary screen, biochemical, fluorescence Ex485/Em525; YopH tyrosine phosphatase [Yersinia enterocolitica]; inhibition, %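 (about 10 µM by stock and volumes)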; 0.16% of 140,000 active; AID 898, 2007;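 active = inhibition of 50% or more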;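 note: controls were vehicle for no effect and minimum signal wells for full effect; inactives centre near -20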
Mtb bLac sens: beta-lactam sensitization of Mtb H37Rv, H37Rv; AID 434955, 2010; 0.27% of 330,000 active; inhibition, % at 25 µM; M. tuberculosis H37Rv growth with meropenem, percent inhibition; hits of this screen are not shown here;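 active = about 74% or more and at least 40 points above the plate without the antibiotic, then above 30% in a dose series; inconclusive = first-round hits that could not be retested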;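 note: growth measured after seven days incubation then overnight dye step; 0% = bacteria only wells and 100% = bacteria with antibiotic; twin plates without the antibiotic show which effects depend on it; some results filed as inactive read as strong as hits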
RecA splice inh: Mtb RecA intein splicing inhibitors, primary screen, biochemical, fluorescence, HTS | Protein RecA (Mycobacterium tuberculosis (strain ATCC 25618 / H37Rv)), P9WHJ3 | cell-free RecA intein splicing | 0.75% of 290,000 active | inhibition, %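 (about 9 µM by stock and volumes)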 | AID 2221, 2009; in the data active = inhibition above about 30%; inconclusive = no clear call, values can overlap the other calls;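 note: 0% = vehicle wells and 100% = reference inhibitor control wells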
Target sequence (P9WHJ3 whole entry, looked up, canonical isoform): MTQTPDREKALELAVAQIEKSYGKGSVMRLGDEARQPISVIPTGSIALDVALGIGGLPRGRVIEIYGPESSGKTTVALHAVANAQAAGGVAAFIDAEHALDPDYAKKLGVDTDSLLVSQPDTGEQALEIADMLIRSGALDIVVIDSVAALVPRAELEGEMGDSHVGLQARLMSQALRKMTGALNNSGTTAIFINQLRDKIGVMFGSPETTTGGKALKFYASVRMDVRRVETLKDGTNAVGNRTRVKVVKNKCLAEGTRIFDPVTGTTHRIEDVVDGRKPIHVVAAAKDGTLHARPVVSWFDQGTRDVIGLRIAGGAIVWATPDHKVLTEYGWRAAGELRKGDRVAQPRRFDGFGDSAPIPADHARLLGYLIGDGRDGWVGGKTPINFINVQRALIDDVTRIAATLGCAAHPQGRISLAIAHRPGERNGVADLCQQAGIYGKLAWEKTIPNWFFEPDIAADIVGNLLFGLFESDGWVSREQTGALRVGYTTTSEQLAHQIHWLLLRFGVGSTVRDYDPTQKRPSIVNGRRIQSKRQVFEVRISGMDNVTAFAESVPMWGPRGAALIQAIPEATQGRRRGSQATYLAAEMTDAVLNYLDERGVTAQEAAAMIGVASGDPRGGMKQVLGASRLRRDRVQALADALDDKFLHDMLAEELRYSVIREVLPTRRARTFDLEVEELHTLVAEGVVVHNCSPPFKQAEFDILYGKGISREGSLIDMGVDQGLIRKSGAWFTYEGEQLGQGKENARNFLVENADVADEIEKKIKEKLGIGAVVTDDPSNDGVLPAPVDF
Arbovirus anti: antivirals against arbovirus infection, primary screen, cell-based, full library, 10K replicate subset. 0.37% of 200,000 active. inhibition, % at 10 µM. arbovirus infection cell-based antiviral screen;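 active = inhibition from about 30%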;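 note: bluetongue infection of BSR cells; cell survival read as ATP light after 72 h; 0% = infected wells without compound and 100% = uninfected wells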
Mtb H37Rv: M. tuberculosis H37Rv growth inhibitors, H37Rv strain (AID 1626). inhibition, % at 10 µM, or IC50 in µM where a hit was titrated. 0.95% of 220,000 active. M. tuberculosis H37Rv growth inhibition; higher % means a stronger effect;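 active = confirmed in a dose series; inconclusive = inhibition above 80% but not taken into the dose series; inactive = below 80% or under 30% at every dose of the series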;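 note: bacteria incubated seven days before Alamar blue readout; 0% = bacteria only wells and 100% = bacteria with antibiotic wells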
Arbovirus anti repeat: also measured in Arbovirus anti; calls as there; inhibition, %; measured here: 10K subset replicate screen; many hits read low in the repeat;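 first of two repeat runs on a subset; 0% = infected and 100% = uninfected wells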
Active calls of the source: *; ? = inconclusive; nt = no result given; & = joins results of further samples. Some of the compounds tested, so the mix of outcomes need not match the whole.

SMILES	YopH inh	Mtb bLac sens	RecA splice inh	Arbovirus anti	Mtb H37Rv	others
O=C(Cc1cccs1)Nc1nnc(COc2ccccc2)s1	-19	2	-2.6	nt	0%
Cc1cccc(NS(=O)(=O)c2cn(C)c(=O)n(C)c2=O)c1C	nt	-7	-4.8	nt	nt
COc1ccc(CNC(=S)N/N=C/c2ccc(O)c(OC)c2)cc1	-18	48	-2.9	-3	-1%
CCc1ccccc1S(=O)(=O)Cc1ccc(C(=O)NCc2cccs2)o1	nt	-4	0.9	15	1%
CCN(CCCNC(=O)CNC(=O)c1nn(-c2ccc(OC)c(OC)c2)c(=O)c2ccccc12)c1ccccc1	nt	-4	1.8	nt	nt
NC(=O)c1ccccc1N/C=C/C(=O)c1ccccc1	17	1	nt	-2	4%
COCc1cc(CN(C)C(=O)c2oc3c(F)cccc3c2C)[nH]n1	nt	-5	0.0	nt	nt
Cc1ccc(C(=O)COC(=O)c2ccc(Br)o2)cc1C	-26	64	2.1	4	5%	Arbovirus anti repeat=-3
CC1CC(C)CN(CC(=O)NCCc2ccc(S(N)(=O)=O)cc2)C1 (stereo not given)	nt	0	1.6	7	-6%
CCCCC(O)(CCCC)C(=O)NN(C(=O)CCl)c1ccccc1	-13	99	43*	0	3%
COc1ccc(-c2noc(-c3ccco3)n2)cc1OC	17	20	3.2	6	-9%
Brc1c(-c2ccccc2)nc2n1Cc1ccccc1-2	nt	12	3.5	nt	15%
CCCc1ccc(C(=O)NNC(=O)c2ccc(Cl)cc2)cc1	-9	nt	-0.5	-2	-5%
COc1cc(/C=N/NC(=O)/C(=C\c2ccc([N+](=O)[O-])cc2)NC(=O)c2ccccc2)cc(OC)c1O	-16	-1	-1.5	-1	3%
CC(C)c1ccc(NC2CCCN(C(=O)C3=NN(C)C(=O)CC3)C2)cc1 (stereo not given)	nt	3	-1.3	nt	nt
CCC(C)NC(=O)CNC(=O)c1nn(-c2ccc(OC)cc2)c(=O)c2ccccc12 (stereo not given)	nt	3	-0.2	nt	nt
Cc1ccccc1NC(=O)COc1ccc(Br)cc1C	-24	2	0.4	-1	-3%
Cc1ccc(C2=NN(C(=O)CCC(=O)O)C(c3cccs3)C2)cc1 (stereo not given)	nt	-1	0.4	nt	-2%
COc1ccc(-n2ncc3c(NCCN4CCOCC4)ncnc32)cc1	1	2	-0.9	-7	-8%
CC(=O)Nc1ccc(NC(=O)c2ccc(Cn3cc(Cl)cn3)cc2)cc1	3	13	-2.3	4	3%
COc1cc(F)ccc1S(=O)(=O)N1CCN(c2ccccc2)CC1	nt	-7	1.1	nt	nt
S=C(Nc1ccc(Oc2ccccc2)cc1)N(CCCN1CCOCC1)Cc1ccccn1	nt	-1	2.3	1	-4%
O=C1CSC(c2ccccc2[N+](=O)[O-])N1c1ccccc1 (stereo not given)	nt	-9	-3.5	5	7%
Cc1cc(C=C2C(=O)NC(=O)NC2=O)c(C)n1-c1cccnc1	nt	-8	-5.5	nt	-3%
COc1ccc(-n2c(C)c([N+](=O)[O-])c3ccc(O)c(CN(C)C)c32)cc1	-19	-13	-0.9	20	nt
Further records follow.
SMILES	YopH inh	Mtb bLac sens	RecA splice inh	Arbovirus anti	Mtb H37Rv	others
COc1ccc(-n2cccc2/C=C2/NC(=O)N(c3cccc(Cl)c3)C2=O)cc1	-30	-2	-0.5	-4	-14%
COC(=O)c1scc(C)c1NC(=O)c1ccc(Cl)cc1	nt	60	3.1	nt	nt
CC(=O)Nc1ccccc1C(=O)C(=O)Nc1ccc(Cl)cc1	nt	-11	1.8	-7	-1%
N/C(=N\OC(=O)Oc1ccccc1)c1ccc([N+](=O)[O-])cc1	-25	11	1.8	4	-2%
CCCn1c(SCC(=O)NC2CCCC2)nnc1C(C)C	nt	3	-0.4	nt	nt
CN1CC(=O)N2[C@H](c3ccc4c(c3)OCO4)c3[nH]c4ccccc4c3C[C@@H]2C1=O	nt	5	-2.4	20	-1%&5%
Cc1ccc(NC(=O)CCn2cccc2)cc1Cl	-8	97	-4.4	-8	?
CCc1nnc(NS(=O)(=O)c2ccc(NC(=O)c3ccccc3O)cc2)s1	nt	-1	-1.9	nt	nt
Cc1ccccc1-c1nc(CS(=O)(=O)CC(=O)NCc2ccco2)c(C)o1	nt	-7	1.9	nt	nt
Cc1oc(-c2ccccc2F)nc1CS(=O)CC(=O)NCc1ccccc1 (stereo not given)	nt	7	1.5	nt	nt
Cc1ccc(C23CC4CC(CC(C(=O)OCC(=O)N(C)C)(C4)C2)C3)cc1	nt	-4	5.0	nt	nt
CCN(CC(=O)NCc1ccc(Cl)cc1)C(=O)/C=C/c1ccco1	nt	-4	1.4	9	6%
Cc1ccc(N2C(=O)C(Cl)=C(NCc3ccccc3)C2=O)c(C)c1	-23	-4	18	-9	4%
CSCCC(NS(=O)(=O)c1ccc(C)cc1)C(=O)NCCc1c[nH]c2ccccc12 (stereo not given)	nt	?	0.8	nt	nt
Cc1csc(NC(=O)CSc2nnc(-c3ccccn3)n2-c2ccc(C)c(C)c2)n1	-20	-3	4.6	5	-2%
CN1CCN(C(=S)SCC(=O)Nc2ccc(Cl)cc2C(=O)c2ccccc2)CC1	-30	6	4.2	-27	1%
CCC(c1nnnn1CCOC)N1CCN(c2nc3ccccc3s2)CC1 (stereo not given)	nt	-7	-0.1	-1	3%
Cc1ccc2c(c1)c1c3n2CCN(C(=O)Cn2c(-c4ccccc4)noc2=O)C3CCC1 (stereo not given)	-30	80	-0.4	-5	7%
Cc1ccccc1NC(=O)C1C2CCCC1C2c1ccccc1 (stereo not given)	-29	2	2.8	0	7%
CC(C)c1ccc(S(=O)(=O)N2CCN(C(=O)c3cccc(F)c3)CC2)cc1	3	-1	3.2	4	3%
c1ccc(CSc2ncnc3c2cnn3Cc2ccccc2)cc1	11	-10	2.3	-12	11%
ON1C2CCCCC2N(O)C1c1c(F)c(F)c(F)c(F)c1F (stereo not given)	-33	?	-8.7	9	-8%
COc1ccc(CCn2c(=O)[nH]c3cc(C(=O)NCCCN4CCOCC4)ccc3c2=O)cc1OC	nt	-2	-3.0	nt	6%
CC(C)=Nc1ccccc1C1COC(=O)C1=N (stereo not given)	-36	-6	-22	2	-1%
CN(Cc1ccccc1F)c1nc(-c2cccs2)nc2ccccc12	-19	55	5.5	3	9%
Remaining list, next part.
SMILES	YopH inh	Mtb bLac sens	RecA splice inh	Arbovirus anti	Mtb H37Rv	others
C/C(=N\NC(=O)c1c(Br)cnn1C)c1ccc(NC(=O)c2ccc(F)cc2)cc1	nt	0	0.1	-10	2%
O=C(N=C1SCC(=O)N1c1ccccc1Cl)c1ccco1	5	-5	0.2	-1	1%
O=C(Nc1ccc2c(c1)OCO2)Nc1ccc(Cl)cc1Cl	7	-5	-1.1	-12	-2%
Cc1cccc(NC(=O)c2ccc(Cl)c(NC(=O)c3ccncc3)c2)c1C	nt	-1	2.0	-6	1%
O=C1C(Cl)=C(NCCN2CCCCC2)C(=O)c2ccccc21	nt	63	48*	-35	-11%
C/C(=N\NC(=O)CNc1cccc(C(F)(F)F)c1)c1cccs1	nt	-9	-0.5	-7	3%
NC(=O)c1ccc(-n2nnnc2Oc2ccc(Br)cc2)cc1	nt	3	3.2	16	4%
Cc1ccccc1NC(=O)C1CCCN(S(=O)(=O)c2ccc(-n3cnnn3)cc2)C1 (stereo not given)	nt	2	3.6	nt	nt
CN(C(=O)CSc1nc2c(c(=O)[nH]1)CCCC2)C1CCCCC1	-36	-10	1.7	-4	7%
Cc1cc(C)c(C#N)c(Sc2ccccc2N)n1	nt	7	-4.3	1	3%
CS(=O)(=O)N(CC(=O)Nc1ccc(F)c(F)c1)c1cccc([N+](=O)[O-])c1	-7	-5	0.7	12	-2%
CCN(CCn1cccn1)C(=O)CCc1nnc(-c2ccccc2)o1	nt	12	1.0	4	4%
CCOC(=O)C(C)n1cnc2c(nnn2-c2ccccc2)c1=O (stereo not given)	nt	-8	-2.9	nt	nt
CC(=O)N/N=C(\C)CCc1ccccc1	nt	-3	-1.7	4	6%
COc1ccc(OC)c(CNn2c(-c3ccccc3F)nc3ccccc3c2=O)c1	nt	3	7.2	8	-3%
O=C(c1ccc(Cl)c(S(=O)(=O)NCc2ccccc2)c1)N1CCN(c2ccccn2)CC1	-25	11	2.1	-19	-11%
CCCNS(=O)(=O)c1ccc(OCC(=O)N2CCc3ccccc3C2)c(C)c1	nt	4	1.0	nt	nt
CCOC(=O)COc1ccc2c(c1)c(C(C)=O)c(C)n2Cc1ccccc1	nt	100	9.6	5	?
Cc1ccc(S(=O)(=O)c2c(C)nn(C(C)(C)C)c2OC(=O)CC(C)C)cc1	nt	-10	9.7	6	2%
CCCCc1ccc(Nc2nc(N3CCOCC3)nc(N3CCOCC3)n2)cc1	nt	14	-1.3	nt	nt
COc1ccc(S(=O)(=O)N2CCN(Cc3ccco3)CC2)cc1	nt	-4	1.3	nt	nt
Cc1nc2nc(NCc3cccs3)nn2c(C)c1Cl	0	-8	-1.2	2	0%
O=P1(O)C=C(c2ccccc2)OC(c2ccccc2)=C1	-36	-3	-0.3	13	nt
CN1CCN(C(=O)CSc2nnc(COc3ccc(Cl)cc3)o2)CC1	nt	4	1.6	nt	nt
COc1ccccc1N1CCN(C2CCCN(Cc3cc(F)cc(F)c3)C2)CC1 (stereo not given)	nt	1	1.2	nt	nt
Other records.
SMILES	YopH inh	Mtb bLac sens	RecA splice inh	Arbovirus anti	Mtb H37Rv	others
Cc1cc(Oc2ccc([N+](=O)[O-])cc2)nc(N2CCOCC2)n1	nt	4	-6.1	nt	3%
C=CCn1c(C)cc(C(=O)COc2nncc3ccccc23)c1C	-20	1	3.6	8	4%	Arbovirus anti repeat=-1
Cc1cccc(Cc2nnc(CCC(=O)NCc3ccncc3C)o2)c1	nt	0	1.8	1	-3%
COc1ccccc1NC(=O)Cn1nnc(C(=O)NCCc2ccccc2)c1N	nt	2	-2.0	-1	2%
CC(=O)N(c1cccc(Br)c1)C1C=CS(=O)(=O)C1 (stereo not given)	-7	4	-0.7	8	-3%
CSc1nncc(=O)[nH]1	-2	-8	0.8	12	1%
COc1ccc(-c2[nH]c(-c3ccc(Cl)cc3)nc2SCC(=O)Nc2nccs2)cc1	-30	2	-4.4	-20	59%
Cc1cccc(-n2ncc(Cl)c(Cl)c2=O)c1	nt	99	24	nt	nt
CC(C)(C)N1C(=O)c2ccccc2NC(=O)N1Cc1ccc(Br)cc1	0	3	3.9	2	-7%
COCCOC(=O)C1=C(C)NC2=C(C(=O)CCC2)C1c1ccc(N(C)C)cc1 (stereo not given)	-50	1	-3.3	1	-2%	Arbovirus anti repeat=6
